PABP FP inh = PABP-poly(A) binding inhibition | inhibition, % at 35 µM | PABP-poly(A) RNA binding, fluorescence polarization | AID 2014 | 1% of 290,000 active;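 active = 50% or more with normal probe brightness, or confirmed in later tests; inconclusive = above 50% with abnormal brightness, or retests that disagree; inactive = below 50% or failed in later tests; about a fifth of its hits are not listed in these tables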;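 note: calls also rest on retests at 20 µM and on dose response follow-up; controls were probe without protein and protein plus probe with vehicle; some compounds called inactive have numbers as strong as hits; many hits fall short of the cut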
Rce1 inhib = blocks yeast Ras-converting enzyme | Q03530 | yeast membranes, quenched prenylated peptide cleavage fluorescence | calls only | 0.27% of 290,000 active | AID 2563;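 active = fall in fluorescence gain of 50% or more versus controls, with final raw signal at or below 3038400; inconclusive = same 50% fall but final raw signal above 3038400; inactive = fall in fluorescence gain under 50%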;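 note: plate controls were neutral control wells for no effect and wells lacking membranes for full effect; tested at 10 µM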
Target sequence (Q03530 whole entry, looked up): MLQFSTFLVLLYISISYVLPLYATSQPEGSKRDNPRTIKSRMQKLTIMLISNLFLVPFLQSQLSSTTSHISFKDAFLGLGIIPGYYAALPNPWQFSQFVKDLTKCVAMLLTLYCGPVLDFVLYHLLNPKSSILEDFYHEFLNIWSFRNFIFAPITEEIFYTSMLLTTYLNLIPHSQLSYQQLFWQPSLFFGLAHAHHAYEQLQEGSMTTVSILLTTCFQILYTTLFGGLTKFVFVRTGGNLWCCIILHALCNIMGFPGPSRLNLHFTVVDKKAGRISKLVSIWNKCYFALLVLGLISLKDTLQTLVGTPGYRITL
CSC inhib = cancer stem cell inhibition; cancer stem cell-like cells viability, luminescence; inhibition, % at 7.5 µM; 1.1% of 300,000 active; AID 2717;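 active = mean at 75% or more and at least half the replicates too; inconclusive = mean and replicates disagree; tested in HMLE shEcad cells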;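 note: 0% = median of negative and 100% = median of positive control wells; the first replicate is given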
Env fusion inh = blocks HIV Env-driven cell-cell fusion. HeLa-JRFL Env/CEM21 cell fusion, luciferase. inhibition, % at 12.3 µM. 1.1% of 360,000 active. AID 651610;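 active = mean replicate inhibition score of at least 50 and every replicate individually at or above 50; inconclusive = only one of the two criteria met; inactive = mean below 50 and not all replicates reaching 50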;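 note: 0% = plate neutral controls and 100% = maraviroc near 300 nM; one replicate is shown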
eIF4H inh = inhibitors of RNA binding by human eIF4H | Q15056 | eIF4H fluorescence polarization binding assay | inhibition, % at 35 µM | 0.94% of 290,000 active | AID 2012;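 active = 50% or more with normal probe brightness, or confirmed in later tests; inconclusive = above 50% with abnormal brightness, or retests that disagree; inactive = below 50% or failed in later tests; about a fifth of its hits are not listed in these tables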;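 note: calls also rest on retests at 20 µM and on dose response follow-up; 0% = protein and probe with vehicle and 100% = probe without protein; strong numbers were not always called active; many hits fall short of the cut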
MT1-MMP act inh = inhibitors of human MT1-MMP activation | HT1080 RFP-PRO-GFP cells, GFP/RFP ratio fluorescence, overnight; percent of plate control window, DMSO zero | GFP/RFP ratio change, % at 20 µM | 0.061% of 360,000 active | AID 651647;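 active = GFP/RFP ratio change of at least 30% with cell ATP level not reduced by more than half and red fluorescence within 50% of control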; note: strong numbers were not always called active
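Assay system – RFP-PRO-GFP reporter HT1080 cells · Compound dosing – single dose of 20 µM compound, 1% DMSO final · Incubation – overnight compound exposure at 37 °C · Measure – GFP/RFP fluorescence ratio · Benchmarks – DMSO wells and RFP-L50D-GFP cells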
UUG fidelity = yeast start codon fidelity modulation | activity score, % at 18.7 µM | AID 602363 | S. cerevisiae UUG-firefly luciferase reporter, luminescence/redox ratio | 0.13% of 350,000 active;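 active = replicate mean at a twofold rise or more, about +100% in these data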;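 note: firefly luciferase made from a UUG start codon reports start codon fidelity; reporter light over untreated wells divided by growth signal over untreated wells; some hits fall short of that in this replicate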
MT1-MMP act inh RFP = further read-out of MT1-MMP act inh, marked with its call; RFP signal change, %; measured here: RFP expression control read;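 0 = vehicle wells; hits needed this value within 50% of zero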
An asterisk follows results filed as active; i = inactive; ? = inconclusive; · = not tested or not shown.

Value order – PABP FP inh	Rce1 inhib	CSC inhib	Env fusion inh	eIF4H inh	MT1-MMP act inh	MT1-MMP act inh RFP	UUG fidelity
1) O=Cc1sc(=O)n(Cc2cccc(C(=O)O)c2)c1Cl
  9	i	-3	-2	4	-45	6	-4
2) Cc1nc(SCC(=O)c2ccc(F)c(F)c2)[nH]c(=O)c1Oc1ccc(F)cc1
  11	i	24	15	1	3	6	·
3) CCc1cnc(Nc2nc(C(N)Cc3ccc(F)cc3)cs2)nc1 (centres undefined)
  ·	·	·	-12	·	0	2	-14
4) COC(=O)c1ccc(Cn2c(C)c(C(=O)Nc3cccc(Oc4ccccc4)c3)sc2=O)o1
  ·	·	·	-53	·	-8	-22	-22
5) CS(=O)(=O)N(CCc1ccccc1)CC(=O)Nc1ccc2c(c1)OCO2
  2	i	-5	-89	3	-1	-3	-12
6) O=C(c1cccc(COCC(F)(F)C(F)F)c1)N1CCN(c2ccccc2)CC1
  -6	i	-17	3	-14	3	-1	2
7) Cc1cccc(SCC(=O)Nc2ccccc2[N+](=O)[O-])c1
  -15	i	3	-19	-2	-2	-1	-6
8) Cc1nn(-c2ccc(C(=O)N3CCN(S(=O)(=O)c4ccccc4C(F)(F)F)CC3)cc2)c(C)c1Cl
  ·	·	7	-4	·	-2	-15	-13
9) Cn1c(=O)oc2cc(S(=O)(=O)N3CCN(c4ccccc4)CC3)ccc21
  ?	i	-1	-19	?	-31	-2	-18
10) Cc1cccc2sc(N(CCCN(C)C)C(=O)c3ccc4ncsc4c3)nc12
  -5	i	2	-22	2	-2	0	-4

Continuation.
Value order – PABP FP inh	Rce1 inhib	CSC inhib	Env fusion inh	eIF4H inh	MT1-MMP act inh	MT1-MMP act inh RFP	UUG fidelity
11) COC(=O)COc1ccc(NS(=O)(=O)c2cccc([N+](=O)[O-])c2)cc1
  3	i	1	7	-9	3	2	·
12) CCOC(=O)c1c(S(=O)(=O)N2CCCC(C(=O)Nc3ncccc3C)C2)c(C)n(C)c1C (centres undefined)
  14	i	-4	9	41	0	1	-4
13) COc1ccc(-c2c(C(C)=O)c(C)nc3sc4c(=O)n(-c5ccc(C)cc5)nnc4c23)cc1
  -8	i	·	·	2	-5	-6	-11
14) O=c1c2nnn(Cc3ccc(Cl)cc3)c2ncn1Cc1ccc(F)cc1
  -2	i	-1	·	-14	15	-2	-11
15) CN(CC(=O)Nc1ccc(F)c(F)c1F)C(=O)CC1OC(=O)c2ccccc21 (centres undefined)
  ·	i	-9	-3	·	4	0	-17
16) CCCCSc1nnc2c(n1)[nH]c1ccccc12
  -4	i	0	-51	4	2	-8	-4
17) O=C(NC(=S)NCc1nc2ccccc2[nH]1)c1ccc(F)cc1
  -9	i	-8	-31	10	4	-1	·
18) COCCn1c(-c2ccc(OC)cc2)cnc1SCC(=O)Nc1cccc2ccccc12
  -8	i	14	-9	-18	-2	-9	-6
19) CC1=C(C(=O)OCc2ccccc2)C(c2ccco2)n2ncnc2N1 (centres undefined)
  11	i	·	-7	8	-6	-18	-12
20) Cn1c(SCC(=O)NCc2ccccc2)nnc1C1CC1
  1	i	-8	-7	-5	-4	3	-18

3 of the entries above in order of the Env fusion inh value, high to low.
| cpd | compound | Rce1 inhib | Env fusion inh | MT1-MMP act inh | MT1-MMP act inh RFP | UUG fidelity |
| --- | --- | --- | --- | --- | --- | --- |
| 15 | CN(CC(=O)Nc1ccc(F)c(F)c1F)C(=O)CC1OC(=O)c2ccccc21 (centres undefined) | i | -3 | 4 | 0 | -17 |
| 20 | Cn1c(SCC(=O)NCc2ccccc2)nnc1C1CC1 | i | -7 | -4 | 3 | -18 |
| 16 | CCCCSc1nnc2c(n1)[nH]c1ccccc12 | i | -51 | 2 | -8 | -4 |

The list continues.
Value order – PABP FP inh	Rce1 inhib	CSC inhib	Env fusion inh	eIF4H inh	MT1-MMP act inh	MT1-MMP act inh RFP	UUG fidelity
21) O=C(COC(=O)/C=C/c1cccc(C(F)(F)F)c1)Nc1cccc2ccccc12
  1	i	-1	-1	-6	2	3	·
22) O=C(NCc1ccco1)c1ccc(Cn2cc([N+](=O)[O-])cn2)o1
  0	i	-10	13	9	-1	4	-3
23) CC1(C)Cc2cccc(OCC(=O)OCC(=O)Nc3ccc(C(N)=O)cc3)c2O1
  ·	i	-8	·	·	2	5	·
24) O=C(Cc1cccc2ccccc12)Nc1ccc2oc(-c3ccccc3)nc2c1
  -12	i	·	-82	11	-6	-6	-3
25) Cn1c(C(=O)N2CCOCC2)cc2c(=O)n3ccccc3nc21
  13	?	-11	-1	4	-3	1	-6
26) CC1(C)Cc2c(sc(NC(=O)C3CC(Cl)=CCC3C(=O)O)c2C#N)CO1 (centres undefined)
  3	i	16	0	-10	6	7	·
27) COc1ccc(CN2CCN(C(=O)c3cccs3)CC2)c(OC)c1OC
  34	i	-25	·	-6	2	3	-6
28) CC(C)C(=O)c1ccc(O)c(O)c1
  0	i	-15	-19	3	-2	5	-9
29) CC(C)(C)NC(=O)Cn1ccc(=N)c2ccccc21
  2	i	-6	·	-5	7	6	·
30) O=C(COC(=O)c1cc(Cl)ccc1O)NCCC1=CCCCC1
  ·	i	-5	15	·	2	1	-7

Carrying on.
Value order – PABP FP inh	Rce1 inhib	CSC inhib	Env fusion inh	eIF4H inh	MT1-MMP act inh	MT1-MMP act inh RFP	UUG fidelity
31) C[C@@]12CCC=C[C@H]1[C@H](c1ccc3ccccc3c1)N(Cc1ccccc1)C2=O
  -7	i	86*	33	-19	0	-3	-29
32) CC(OC(=O)CNC(=O)c1ccco1)C(=O)Nc1ccc(Cl)cn1 (centres undefined)
  ·	i	-12	8	·	-2	2	·
33) CC(=O)C1=C(O)C(=O)N(c2ccccn2)C1c1ccc(Cl)cc1 (centres undefined)
  12	i	-10	6	-8	-2	2	-7
34) Cc1cc(C)n2nc(C(=O)N/N=C/c3ccccc3C)nc2n1
  -2	i	-9	-4	-3	-2	2	-14
35) Cc1cc(C(=O)N2CCN(S(=O)(=O)c3ccc(C)c(C)c3)CC2)no1
  ·	·	·	1	·	-4	-4	-13
36) Cc1cc(Cl)ccc1OCC(=O)N1C(C)CCCC1C (centres undefined)
  12	i	·	10	-2	1	1	·
37) CN1CCCC(C)(C(=O)Nc2cccc(Oc3ccccc3)c2)C1 (centres undefined)
  ·	·	·	-9	·	-1	-1	-9
38) O=C(Nc1ccccc1)C1Cc2ccccc2CN1C(=O)c1ccco1 (centres undefined)
  15	i	·	-206	23	-7	-2	·
39) CCCC(=O)NC(c1ccc(C(C)C)cc1)c1ccc2cccnc2c1O (centres undefined)
  1	i	99*	-276	4	0	-13	-16
40) COc1ccc(CCC(=O)Nc2ccc(C(=O)c3ccncc3)cc2)cc1
  -2	i	·	5	0	-5	0	-4

(next part)
Value order – PABP FP inh	Rce1 inhib	CSC inhib	Env fusion inh	eIF4H inh	MT1-MMP act inh	MT1-MMP act inh RFP	UUG fidelity
41) NC(N)=NS(=O)(=O)c1ccc(NC(=S)NC(=O)c2ccncc2)cc1
  2	i	-9	18	-8	-5	0	-17
42) C=CCn1c(SCC(=O)NCC2CCCO2)nc2scc(-c3ccccc3)c2c1=O (centres undefined)
  -4	i	-2	9	-14	-1	-3	4
43) CC(C)C[C@@]12C(=O)N(c3cccc(Cl)c3)C(=O)N1[C@H](c1ccc(F)cc1)[C@@H]1C(=O)N(C3CCCCC3)C(=O)[C@@H]12
  ·	i	10	15	·	-9	-12	-14
44) CC(C)Oc1ccc(S(=O)(=O)N2CCOCC2)cc1NC(=O)Cc1c(F)cccc1Cl
  ·	i	22	18	·	-2	-8	9
45) N#CC1=C(SCC(=O)NC23CC4CC(CC(C4)C2)C3)NC(=O)C(C#N)C12CCCCC2 (centres undefined)
  -4	i	34	·	4	4	-22	-15
46) CCOc1ccc(OCc2ccc(C(=O)N(CC)CC)cc2)cc1
  2	i	4	18	-5	1	-10	·
47) O=C1CCCC(O)=C1N=Nc1c(Cl)cc(C(F)(F)F)cc1Cl
  23	i	-11	-8	12	59	58	-15
48) Cc1ccc(O)c(NC(=O)c2noc3c2CCc2ccccc2-3)c1
  -12	i	-3	-25	1	2	4	·
49) Cc1ccc(NC(=O)c2cc(N3C(=O)C=CC3=O)ccc2N2CCOCC2)cc1
  4	i	·	-24	11	2	5	·
50) O=C1NC2c3ccccc3C(=O)N2c2c1cnn2-c1ccccc1 (centres undefined)
  -10	i	-8	·	-10	0	-1	-4

Next part.
Value order – PABP FP inh	Rce1 inhib	CSC inhib	Env fusion inh	eIF4H inh	MT1-MMP act inh	MT1-MMP act inh RFP	UUG fidelity
51) Cc1ccc(O)c(C(=O)c2cc(C#N)c(=O)n(Cc3ccccc3)c2)c1
  -3	i	-7	10	1	-13	-4	·
52) CC(OC(=O)CCCN=C1NS(=O)(=O)c2ccccc21)C(=O)Nc1ccccc1F (centres undefined)
  ·	i	-1	-17	·	-1	-3	-16
53) COc1ccc(C2CC(=O)N(CC(=O)NCC3CCCO3)c3ccccc3S2)cc1OC (centres undefined)
  -1	i	-11	9	1	2	4	-11
54) COc1cc(C=Nc2cccc(C)c2)c(O)c([N+](=O)[O-])c1
  2	i	-6	7	-9	0	1	-7
55) COCc1cc(C)nc(SCC(=O)Nc2ccc(C)c(C)c2)c1C#N
  -6	i	0	-31	-2	-5	-5	-10
56) CCCSC1=C(C#N)C(c2cc(OC)ccc2OC)CC(=O)N1 (centres undefined)
  -4	i	-8	7	-8	6	1	-8
57) CCOc1ccccc1NC(=S)NC(=O)C1CC1
  3	·	0	-1	1	-7	1	-10
58) CC[C@H](C)/C=C(C)/C=C/C1=CC2=CC(=O)[C@]3(C)OC(=O)[C@@H](C(C)=O)[C@@H]3C2=CO1
  ?	i	1	·	?	-11	8	14
59) COC(=O)CCCC(=O)N1CCC(CCC(=O)NCc2ccc(F)cc2)CC1
  -12	i	-6	1	0	·	·	-13
60) C/C=C/c1ccc(OCCCNC2CCCC2)c(OC)c1
  -2	i	2	-22	4	-2	-2	-3

More entries follow.
Value order – PABP FP inh	Rce1 inhib	CSC inhib	Env fusion inh	eIF4H inh	MT1-MMP act inh	MT1-MMP act inh RFP	UUG fidelity
61) CN1CCN(c2ccc(C(=O)c3ccccc3)cc2[N+](=O)[O-])CC1
  3	i	83*	9	2	-2	-4	-14
62) CCn1c(C(C)NC(=O)c2cccc(C)c2)nc2ccccc21 (centres undefined)
  4	i	-15	22	7	-2	1	-27
63) CCOc1ccc(N=C2NC(=O)C(CC(=O)O)S2)cc1 (centres undefined)
  4	i	3	·	24	5	7	·
64) O=C(C1CCN(C2CC(=O)N(c3ccc(Cl)cc3)C2=O)CC1)N1CCOCC1 (centres undefined)
  4	i	1	·	-4	4	6	-19
65) CNC(=O)CCC(=O)Nc1ccc(C)cc1
  -2	i	-1	7	6	2	-1	·
66) CCOC(=O)c1c(-c2ccccc2)oc2ccc(OCC(=O)NN)cc12
  7	i	16	-9	-1	·	·	-2
67) CC(C)OCCCNC(=O)c1ccc2c(=O)n(Cc3ccc4c(c3)OCO4)c(=S)[nH]c2c1
  -1	i	-14	12	8	2	-1	-2
68) O=C(CSc1c(F)c(F)cc(F)c1F)Nc1ccc(C2SCCS2)cc1
  -7	i	6	-15	-8	3	-1	-11
69) OCc1ccnc2c(O)cccc12
  -7	i	2	-46	4	-3	0	-14

Assay outcomes as filed in PubChem.
